Bioassay records (PubChem BioAssay)
rRNA inh HTS: selective bacterial rRNA inhibition in E. coli. E. coli WT GFP vs humanized-ribosome RFP mutants, fluorescence, 24 h; active compounds read low; DMSO median 0, no signal -100. 1.6% of 350,000 active. GFP signal change (wild-type ribosome), % (no concentration beside the values);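 active means significant combined selectivity score with lowered wild-type GFP, culture density cut under 30%, mutant RFP and density less affected; inactive means any of these conditions unmet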; further: one replicate is shown; some compounds called inactive have numbers as strong as hits
Beta cell apopt: beta cell apoptosis inhibition; INS-1E cytokine-induced death, ATP luminescence, 48 h; percent of positive-control rescue, neutral wells zero; protection from apoptosis, % (concentration not given with the values); 0.8% of 300,000 active;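 active means all replicates at 75% or more, or half of them and the mean; inconclusive means half reach 75% but not the mean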;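 further: 0% = cytokine-treated negative control wells and 100% = positive control rescue; higher means more ATP so stronger rescue from cytokine killing; wells of about 40 µL received 100 nL stock; the first replicate is given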
A1 inh: inhibitors of the anti-apoptotic protein A1, read as caspase activation. MEF A1-2A-BIM cells, Caspase-Glo 3/7 luminescence, 3 h; percent of clofoctol response, vehicle zero. caspase activation, % (no concentration beside the values). 0.066% of 330,000 active. AID 2462;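 active means over half of replicate activation scores above 10%, or exactly half above 10 with the replicate mean above 10; inconclusive means replicate mean below 10 yet half the replicates above 10; inactive means over half of replicates below 10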;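 further: wells of about 30 µL received 50 nL stock; many hits fall short of the cut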
B2AR ag: human beta-2 adrenergic receptor agonism by FAP | P07550 | Am2.2-beta2AR cells, FAP receptor internalization, flow cytometry; reference of the scale not given here | response, % (test concentration not listed) | 0.43% of 340,000 active | AID 504454;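 active means response above a set limit, near 3 SD of response in nonfluorescent compounds, cut at about 42% in these data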;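 further: stock transfer was 100 nL into about 11 µL; a reference agonist was the positive control; negative values mostly stem from fluorescent compounds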
Target sequence (P07550 whole entry, looked up): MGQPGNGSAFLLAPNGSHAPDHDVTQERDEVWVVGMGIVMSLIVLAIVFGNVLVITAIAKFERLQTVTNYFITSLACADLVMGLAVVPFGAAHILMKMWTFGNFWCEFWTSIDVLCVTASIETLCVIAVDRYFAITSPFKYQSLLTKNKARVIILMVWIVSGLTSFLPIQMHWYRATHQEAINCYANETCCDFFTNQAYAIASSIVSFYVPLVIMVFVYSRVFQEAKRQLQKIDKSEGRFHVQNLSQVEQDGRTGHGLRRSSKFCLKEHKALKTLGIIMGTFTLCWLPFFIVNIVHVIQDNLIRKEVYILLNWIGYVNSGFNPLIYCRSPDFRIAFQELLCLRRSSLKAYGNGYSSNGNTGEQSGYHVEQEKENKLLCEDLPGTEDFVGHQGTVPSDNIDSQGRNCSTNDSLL
LANA-H2A inh: blocks KSHV LANA binding to histone H2A/H2B; Q9QR71; cell-free LANA-H2A/H2B peptide, fluorescence polarization; inhibition, % (no concentration beside the values); 0.6% of 320,000 active; in the data active means inhibition mostly above about 10%, no sharp cut-off; inactive means mostly below about 6.7%;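 further: stock transfer was 7.5 nL into about 10 µL; 0% = median of vehicle wells and 100% = median of positive control wells; one replicate is shown; the record names a cut of 25% in any replicate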
Calb FLC: C. albicans growth modulation with fluconazole | 0.57% of 300,000 active | growth inhibition, % (no concentration beside the values) | AID 1979 | C. albicans CaCi-2 (fluconazole-resistant clinical isolate) + fluconazole, Alamar Blue growth, 48 h;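 active means most replicates above 75%; inconclusive means exactly half above 75%; inactive means most below 75%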;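 further: all wells also contain fluconazole at 8 µg/ml as a sub-toxic cotreatment; 0% = median of DMSO wells and 100% = median of geldanamycin control wells; wells of about 8 µL received 7.5 nL stock; the first replicate is given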
ALR H2O2 inh: human ALR oxidase inhibition via reduced H2O2 | 3.8% of 290,000 active | inhibition, % (no concentration beside the values) | purified ALR, DTT oxidation, H2O2 HRP-luminol luminescence | P55789;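 active means mean and each replicate at 75% or more; inconclusive means only one of the two met; inactive means neither met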;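 further: stock transfer was 7.5 nL into about 7.5 µL; 0% = neutral wells and 100% = wells with inactivated enzyme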
Target sequence (P55789 whole entry, looked up): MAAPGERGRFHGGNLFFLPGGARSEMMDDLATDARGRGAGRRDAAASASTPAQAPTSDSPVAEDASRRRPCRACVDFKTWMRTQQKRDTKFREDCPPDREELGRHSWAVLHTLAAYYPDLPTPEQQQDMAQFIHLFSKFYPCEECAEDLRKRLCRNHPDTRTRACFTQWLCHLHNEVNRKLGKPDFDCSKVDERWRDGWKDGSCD
T cruzi repl: blocks replication of Trypanosoma cruzi | 1.4% of 300,000 active | inhibition, % (concentration not given with the values) | T. cruzi beta-gal in NIH3T3, luminescence, 90 h;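 active means mean inhibition across valid replicates above about 55%, limit read from the data; inconclusive means mean below that limit but half or more replicates reach it; inactive means mean below it, under half of replicates reach it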;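 further: signal also drops with host cell toxicity which is not excluded here; 0% = plate median of DMSO wells and 100% = zero luminescence signal; higher percent means less beta-gal luminescence so fewer parasites; stock transfer was 50 nL into about 50 µL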
rRNA inh HTS OD600: further read-out of rRNA inh HTS, marked with its call; OD600 change, %; measured here: OD600 growth;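 optical density of the mix in the first replicate; 0 = DMSO median and -100 = no signal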
rRNA inh HTS RFP: also measured in rRNA inh HTS; calls as there; RFP signal change, %; measured here: RFP humanized mutant strains;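 first replicate; 0 = DMSO median and -100 = no signal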
Active calls of the source: *; ? = inconclusive; nt = no result given. An excerpt. The share of hits here may be higher or lower than overall.

Values run as follows: LANA-H2A inh | Beta cell apopt | B2AR ag | ALR H2O2 inh | Calb FLC | rRNA inh HTS RFP | rRNA inh HTS | A1 inh | T cruzi repl | rRNA inh HTS OD600
O=C1CN(C(=O)c2ccco2)C(c2ccc(F)cc2)c2cc(Cl)ccc2N1 (stereo unspecified)
  -0.1 | 4 | 6 | -19 | 13 | nt | nt | -0.8 | -18 | nt
COc1ccc(C2C3=C(CC(C)(C)CC3=O)Nc3n[nH]c(C)c32)cc1 (stereo unspecified)
  3.6 | -4 | -1 | 31 | -19 | nt | nt | -0.3 | 2 | nt
O=C(Nc1cccc(F)c1)c1ccccc1-c1ccccc1
  -2.9 | 2 | 0 | 0 | 4 | nt | nt | 0.9 | -3 | nt
OC(CNCCCN1CCCCC1)COc1ccccc1 (stereo unspecified)
  3.0 | 3 | -6 | -3 | 6 | nt | nt | -0.2 | 9 | nt
COc1ccc(C(=O)Nc2cccc3nc(C)ccc23)cc1OC
  0.6 | -1 | 7 | -3 | 3 | -1.3 | -1 | 0.6 | -12 | 8
O=C(CN1C(=O)CCS(=O)(=O)c2ccccc21)NCc1ccc2c(c1)OCO2
  0.5 | -3 | 0 | -7 | 2 | nt | nt | 0.3 | -10 | nt
Cc1c(CCC(=O)NCCCn2ccnc2)c(=O)oc2cc3occ(C(C)(C)C)c3cc12
  2.1 | 3 | -20 | -6 | 12 | 4.7 | -5 | 0.6 | 25 | -19
CCOC(=O)Cn1c(N2CCCCCC2)nc2c1c(=O)[nH]c(=O)n2C
  -0.9 | 2 | -3 | 10 | 23 | nt | nt | 0.1 | 6 | nt
Cc1oc(CC(C)C)c(CN2CCCC2)c1C(=O)O
  0.9 | -6 | 2 | -4 | 1 | nt | nt | -0.6 | 6 | nt
Cc1cc(C)c2[nH]c(C)c(CN3CCCCCC3)c(=O)c2c1
  1.3 | 0 | -4 | 2 | -4 | 1.3 | 7 | 0.5 | 27 | 8
COC(=O)C1CC(O)CN1C(=O)Nc1ccccc1 (stereo unspecified)
  -3.4 | -1 | 4 | 0 | -7 | 0.2 | 16 | -0.5 | -9 | 19
Cc1cccc(Oc2ncc(-c3ccc(Cl)cc3)cn2)c1
  1.2 | 4 | 4 | -14 | -5 | nt | nt | -0.1 | 0 | nt
CC1CCCCN1C(=S)NC(=O)c1cccs1 (stereo unspecified)
  1.7 | -12 | 3 | 10 | 7 | 2.6 | 17 | 1.1 | -13 | 7
Cn1c(=O)n(C)c2cc(NC(=O)c3ccccc3NS(C)(=O)=O)ccc21
  3.1 | -3 | 2 | -1 | -8 | -4.3 | -6 | -0.4 | -7 | 0
CN1CCN(CCC(=O)Nc2ccc(Br)cc2)CC1
  2.3 | -11 | -8 | -8 | -8 | -0.1 | 19 | 0.0 | 7 | 26
CN=C1SC(CC(=O)Nc2ccc(C(C)=O)cc2)C(=O)N1C (stereo unspecified)
  2.9 | 5 | 0 | nt | -2 | nt | nt | -0.2 | -15 | nt
COc1ccc(CCNC(=O)C2CCN(C(=O)c3ccccc3)CC2)cc1
  -1.1 | nt | nt | -8 | 14 | -3.2 | 0 | 1.0 | -11 | -6
C=CCNc1oc(-c2cccc3ccccc23)nc1C#N
  -1.3 | 2 | nt | 0 | -4 | nt | nt | 0.7 | 42 | nt
COc1cc(OC)cc(C(=O)NN(CCC#N)C2=NS(=O)(=O)c3ccccc32)c1
  2.0 | 0 | -10 | nt | -4 | 3.8 | 13 | -0.3 | 0 | 3
O=C(CCCn1c(=O)[nH]c2ccccc2c1=O)Nc1ccc(F)cc1
  0.4 | 0 | 0 | -13 | 5 | -1.4 | 1 | -0.1 | -7 | 4
CC(C)OC(=O)Cn1nc(C(c2ccccc2)c2ccccc2)oc1=O
  1.7 | -3 | 0 | -27 | 4 | -4.7 | -20 | 0.8 | 5 | -24
Cc1ccc(CCC(=O)Nc2ccccc2F)s1
  0.3 | -2 | 3 | -11 | -32 | 2.5 | 13 | -6.7 | -4 | 10
Nn1c(SCc2csc(-c3ccccc3)n2)nnc1-c1cccs1
  -3.4 | 1 | -14 | nt | -1 | nt | nt | 0.0 | 6 | nt
Cc1ccc(NC(=O)CSc2nccn(-c3ccc4c(c3)OCCO4)c2=O)cc1
  -1.4 | -14 | 6 | 99* | 49 | 3.1 | -1 | 0.4 | -1 | -4
CCOc1ccc(NC(=O)c2[nH]c(C)c(C(C)=O)c2C)cc1
  -3.5 | -8 | -5 | -3 | -4 | 0.0 | -3 | -5.7 | 6 | -6
O=C(O/N=C\c1ccc(N2CCCCC2)c([N+](=O)[O-])c1)c1cccc(Cl)c1
  4.5 | -2 | -10 | -16 | -7 | nt | nt | -0.4 | -2 | nt
O=C1C2C3C=CC(CC3)C2C(=O)N1c1ccc(Cl)cc1Cl (stereo unspecified)
  3.4 | 1 | -1 | -7 | 0 | -6.8 | -6 | 1.1 | 10 | -11
OCCOc1cccc(CN2CCC(CO)(CCOc3ccccc3)CC2)c1
  2.1 | 3 | 4 | -6 | -2 | 10 | 16 | 0.5 | 4 | 9
Cc1ccc(/C=C/C(=O)Nc2cccc3cccnc23)o1
  4.1 | -1 | -1 | -10 | 3 | nt | nt | 0.7 | -2 | nt
O=C(NC1(Cc2ccccc2)CCN(CCCc2ccccc2)C1=O)c1ccccc1 (stereo unspecified)
  -0.9 | 111* | 26 | -2 | nt | -20 | -35 | 0.5 | nt | -67

A draw from above in order of count of non-hydrogen atoms, rising:
Values run as follows: LANA-H2A inh | Beta cell apopt | B2AR ag | ALR H2O2 inh | Calb FLC | rRNA inh HTS RFP | rRNA inh HTS | A1 inh | T cruzi repl | rRNA inh HTS OD600
COC(=O)C1CC(O)CN1C(=O)Nc1ccccc1 (stereo unspecified)
  -3.4 | -1 | 4 | 0 | -7 | 0.2 | 16 | -0.5 | -9 | 19
Cc1cccc(Oc2ncc(-c3ccc(Cl)cc3)cn2)c1
  1.2 | 4 | 4 | -14 | -5 | nt | nt | -0.1 | 0 | nt
CCOC(=O)Cn1c(N2CCCCCC2)nc2c1c(=O)[nH]c(=O)n2C
  -0.9 | 2 | -3 | 10 | 23 | nt | nt | 0.1 | 6 | nt

Further structures follow:
Values run as follows: LANA-H2A inh | Beta cell apopt | B2AR ag | ALR H2O2 inh | Calb FLC | rRNA inh HTS RFP | rRNA inh HTS | A1 inh | T cruzi repl | rRNA inh HTS OD600
CC(=O)NS(=O)(=O)c1ccc(N=NN2CCCCCC2)cc1
  0.1 | nt | -4 | -4 | 11 | 0.5 | -5 | 0.7 | 4 | -9
O=C(Oc1ccc(Br)cc1C(=S)N1CCOCC1)c1ccccc1
  -0.1 | 6 | 5 | -1 | 4 | 1.6 | -7 | 0.1 | -1 | -6
Cc1cc(C)n(C(=O)CCC(=O)NCc2ccccc2)n1
  2.7 | -2 | -1 | -3 | -1 | -3.4 | 9 | 0.1 | -12 | 2
Cn1nnnc1Sc1ncnc2scc(-c3cccc(S(C)(=O)=O)c3)c12
  2.1 | -59 | 4 | 55 | nt | -0.1 | 1 | 0.9 | nt | 2
O=C(COC(=O)Cc1c(Cl)cccc1Cl)Nc1ccc(OC(F)(F)F)cc1
  -5.0 | -6 | 0 | nt | -7 | -2.8 | -5 | 0.5 | 0 | -25
Nc1nnc(SCC(=O)N2CCc3ccccc32)n1-c1ccccc1
  1.8 | -3 | -8 | -5 | -2 | nt | nt | -0.2 | -12 | nt
CCCN1CCC(=O)N([C@H](CSc2ccccc2)Cc2ccccc2)CC1
  0.5 | -16 | -4 | nt | -27 | -9.8 | -4 | ? | -11 | -5
CCC/C(=N\NC(=O)C1CC1)c1ccccc1
  6.9 | nt | -23 | -6 | 2 | -1.1 | 10 | 0.4 | -4 | 11
CCn1c2ccccc2c2nnc(NN)nc21
  3.1 | 4 | -14 | -5 | -2 | nt | nt | 0.1 | 19 | nt
O=C(O)C1=C[C@H](c2ccc3c(c2)OCO3)C[C@H](OCCCCO)O1
  1.4 | -5 | -4 | -5 | 0 | 20 | -3 | -1.8 | -8 | -11
O=C(CN(Cc1cccs1)C(=O)CCC(=O)Nc1ccccn1)NCc1ccccc1
  -1.3 | -4 | 1 | -4 | 3 | -0.8 | -3 | -0.2 | 3 | -2
COCCCNC(=S)N1CCN(C(c2ccccc2)c2ccccc2)CC1
  4.5 | -11 | -1 | -8 | 15 | -8.5 | -35 | 0.4 | -16 | -31
O=C(c1noc2c1CCCC2)N1CCN(Cc2ccccc2)CC1
  -0.1 | 3 | -1 | -1 | 12 | -0.6 | -6 | 0.3 | 6 | -6
Cc1cc(C)nc(-n2nc(C)cc2NC(=O)CN2CCCC2)n1
  4.2 | -9 | -14 | -10 | -19 | -1.1 | 19 | -0.9 | -9 | 7
CCN(CC)C(=O)c1[nH]cnc1C(=O)N[C@@H](C)C(=O)OC(C)(C)C
  -0.5 | 0 | 0 | 2 | -7 | 1.8 | 10 | 1.1 | -15 | 4
Cc1ccc(NCCc2ccc(C)nc2)cc1
  1.2 | 1 | 6 | 49 | 4 | nt | nt | -0.2 | 10 | nt
O=C(Oc1ccccc1)c1ccc(NC(=O)c2ccco2)cc1
  0.3 | 1 | 0 | 56 | -3 | nt | nt | -5.4 | -8 | nt
O=C(CSc1nnnn1C1CCCCC1)N1c2ccccc2Sc2ccccc21
  6.6 | 6 | 8 | -9 | 10 | nt | nt | 0.2 | 26 | nt
CCN(CC)S(=O)(=O)c1cc(C(=O)N(C)CC(=O)Nc2ccc(Cl)cc2)ccc1Cl
  -0.9 | 4 | -4 | 2 | 9 | -25 | -50 | 0.0 | 19 | -74
NC(=O)c1ccccc1NC(=O)CSc1cn[nH]n1
  4.2 | 0 | -9 | nt | 7 | 0.0 | 3 | 0.8 | -1 | -2
O=C(c1ccc(S(=O)(=O)N2CCCCC2)cc1)N1CCCc2ccccc21
  4.0 | 2 | 11 | nt | 12 | nt | nt | 1.4 | -13 | nt
CCCC#Cc1ccc2c(c1)COc1c3ccccc3nn1-2
  -6.7 | 2 | 1 | nt | 11 | -13 | 4 | -11 | 6 | -2
Cc1ccc(C(=O)N(c2c(C)n(C)n(-c3ccccc3)c2=O)C(C)C)cc1
  3.4 | 3 | 3 | -3 | 0 | 0.4 | 9 | 0.7 | 8 | 12
Fc1ccc(N2CCN(Cc3c[nH]c4ccccc34)CC2)cc1
  -6.2 | 91* | nt | 5 | -17 | nt | nt | 1.0 | 73* | nt
Cc1ccc(/C=C/S(=O)(=O)N2CCC(C(=O)O)CC2)cc1
  -2.6 | -8 | 4 | -12 | 6 | nt | nt | -1.6 | -5 | nt
CCCCn1c(-c2nonc2N)nc2ccccc21
  3.0 | -6 | -3 | -6 | -4 | nt | nt | 0.5 | 0 | nt
CCOC(=O)c1cc(C(=O)OCC)cc(-n2c(C)cc(C(=O)CN3CCOCC3)c2C)c1
  -3.9 | -5 | 7 | -34 | -2 | nt | nt | 1.0 | 0 | nt
